Screening results as filed in PubChem.
YopH inh: YopH tyrosine phosphatase inhibitors, primary screen, biochemical, fluorescence Ex485/Em525; YopH tyrosine phosphatase [Yersinia enterocolitica]; AID 898, 2007; 140,000 compounds, 0.16% hits; inhibition, %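 (about 10 µM by stock and volumes)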;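 active = inhibition of 50% or more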;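 note: controls were vehicle for no effect and minimum signal wells for full effect; inactives centre near -20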
RecA splice inh: Mtb RecA intein splicing inhibitors, primary screen, biochemical, fluorescence, HTS | cell-free RecA intein splicing | inhibition, %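 (about 9 µM by stock and volumes)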 | 290,000 compounds, 0.75% hits | AID 2221, 2009; in the data active = inhibition above about 30%; inconclusive = no clear call, values can overlap the other calls;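 note: 0% = vehicle wells and 100% = reference inhibitor control wells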
Target sequence (P9WHJ3 whole entry, looked up, canonical isoform): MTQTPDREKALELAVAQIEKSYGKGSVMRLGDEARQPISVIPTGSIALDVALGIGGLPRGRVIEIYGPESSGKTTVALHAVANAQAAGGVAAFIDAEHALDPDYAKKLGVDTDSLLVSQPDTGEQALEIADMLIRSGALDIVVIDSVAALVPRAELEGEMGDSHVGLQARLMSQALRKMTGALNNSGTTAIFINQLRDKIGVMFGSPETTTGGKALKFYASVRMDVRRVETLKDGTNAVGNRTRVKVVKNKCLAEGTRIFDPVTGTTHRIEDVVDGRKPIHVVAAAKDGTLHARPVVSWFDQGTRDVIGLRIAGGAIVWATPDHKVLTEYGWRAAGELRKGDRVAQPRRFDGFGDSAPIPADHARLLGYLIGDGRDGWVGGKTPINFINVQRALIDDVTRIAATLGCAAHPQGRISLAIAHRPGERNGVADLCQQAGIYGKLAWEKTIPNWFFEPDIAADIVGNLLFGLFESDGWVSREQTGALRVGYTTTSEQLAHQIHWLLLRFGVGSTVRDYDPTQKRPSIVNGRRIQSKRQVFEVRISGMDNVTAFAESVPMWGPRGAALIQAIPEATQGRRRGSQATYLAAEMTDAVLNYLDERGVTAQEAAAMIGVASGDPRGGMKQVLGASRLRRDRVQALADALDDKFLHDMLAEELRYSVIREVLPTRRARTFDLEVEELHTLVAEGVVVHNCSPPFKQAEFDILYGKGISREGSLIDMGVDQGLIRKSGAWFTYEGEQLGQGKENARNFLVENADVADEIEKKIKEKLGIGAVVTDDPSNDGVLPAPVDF
Mtb bLac sens: beta-lactam sensitization of Mtb H37Rv, H37Rv; 330,000 compounds, 0.27% hits; M. tuberculosis H37Rv growth with meropenem, percent inhibition; hits of this screen are not shown here; inhibition, % at 25 µM; AID 434955, 2010;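 active = about 74% or more and at least 40 points above the plate without the antibiotic, then above 30% in a dose series; inconclusive = first-round hits that could not be retested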;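 note: growth measured after seven days incubation then overnight dye step; 0% = bacteria only wells and 100% = bacteria with antibiotic; twin plates without the antibiotic show which effects depend on it; some results filed as inactive read as strong as hits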
Arbovirus inh: antivirals against arbovirus infection, primary screen, cell-based, full library, 10K replicate subset; arbovirus infection cell-based antiviral screen; 200,000 compounds, 0.37% hits; inhibition, % at 10 µM; AID 1251, 2008;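 active = inhibition from about 30%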;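 note: bluetongue infection of BSR cells; cell survival read as ATP light after 72 h; 0% = infected wells without compound and 100% = uninfected wells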
Mtb H37Rv: M. tuberculosis H37Rv growth inhibitors, H37Rv strain (AID 1626). M. tuberculosis H37Rv growth inhibition; higher % means a stronger effect. inhibition, % at 10 µM, or IC50 in µM where a hit was titrated. 220,000 compounds, 0.95% hits;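 active = confirmed in a dose series; inconclusive = inhibition above 80% but not taken into the dose series; inactive = below 80% or under 30% at every dose of the series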;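 note: bacteria incubated seven days before Alamar blue readout; 0% = bacteria only wells and 100% = bacteria with antibiotic wells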
Arbovirus inh repeat: also measured in Arbovirus inh; calls as there; inhibition, %; measured here: 10K subset replicate screen; many hits read low in the repeat;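 first of two repeat runs on a subset; 0% = infected and 100% = uninfected wells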
Active calls of the source: *; ? = inconclusive; . = no result given. The list is partial. The share of hits here may be higher or lower than overall.

SMILES | YopH inh | RecA splice inh | Mtb bLac sens | Arbovirus inh | Mtb H37Rv | others
COc1cc(CN=Cc2c(O)n(Cc3ccccc3)c(=S)[nH]c2=O)cc(OC)c1 | . | 1.2 | 9 | . | 4%
CCOc1ccc(NC(=O)[C@H](C)NC(=O)C2CC(=O)N(c3ccc(OC)cc3)C2)cc1 (some centres undefined) | . | 0.7 | 20 | . | .
Cn1c(CNC(=O)CCNC(=O)c2ccccc2)cc(=O)n(C)c1=O | . | -2.4 | -1 | . | .
Clc1ccc(-n2ncc3c(NCCN4CCOCC4)ncnc32)cc1 | -1 | -4.2 | 0 | -1 | 3%
Cc1ccc(SC(C)C(=O)N2CCN(c3ccccc3)CC2)cc1 (centres undefined) | . | 0.2 | 1 | . | .
Cc1ccc(CSCC(=O)NCc2ccc3c(c2)OCO3)cc1 | . | -0.5 | 0 | . | -1%
CCC(C)OC(=O)C1=C(C)NC(=O)NC1c1ccc(F)cc1 (centres undefined) | -34 | 3.3 | -1 | -1 | -4% | Arbovirus inh repeat=1
c1cc(SSc2ccncc2)ccn1 | . | 1.3 | 5 | . | .
Cc1ccc(NC(=O)CN(Cc2ccccc2)S(C)(=O)=O)cc1C | -1 | 0.9 | -1 | 4 | 0%
COC(=O)N1CC(=O)N(OC)C1c1ccc(Cl)cc1Cl (centres undefined) | -15 | -2.6 | -3 | 0 | -1%
O=C(/C=C/c1cn(CC(O)CN2CCCCCC2)c2ccccc12)c1cccs1 (centres undefined) | -1 | -0.6 | 100 | -18 | 0.99µM*
Clc1ccc(-c2nnc(COc3ncnc4sccc34)o2)cc1 | -24 | 0.2 | 0 | 5 | 0%
CC(NC(=O)CN(C1CCCCC1)S(C)(=O)=O)c1ccccc1 (centres undefined) | -4 | -0.3 | -5 | 6 | 10%
CCCCn1c(SCC(=O)Nc2nc(C)cs2)nnc1-c1cccnc1 | -36 | -1.2 | . | -7 | 2%
CC1=NN(C(=S)Nc2ccccc2)C(c2ccccc2)C1 (centres undefined) | -14 | -1.7 | 5 | 9 | 4%
CCOCCCNC(=S)NCCCNc1nc2c(C)cc(C)cc2cc1C#N | . | . | . | -26 | -3%
Cc1cccc(N2CCN(S(=O)(=O)c3ccc(-c4coc(C)n4)cc3)CC2C)c1 (centres undefined) | . | 5.3 | -2 | . | .
CC1CCc2[nH]c3ccc(C(=O)N4CCCC(C(F)(F)F)C4)cc3c2C1 (centres undefined) | . | -2.1 | -1 | . | .
CCCn1c2ccc(F)cc2c2nnc(NN)nc21 | . | -2.3 | 2 | 6 | 2%
CC(=O)Nc1ccc(S(=O)(=O)Nc2ccc3c(c2)OCO3)cc1 | . | 2.7 | 2 | . | .

6 records drawn at random from the list so far:
SMILES | YopH inh | RecA splice inh | Mtb bLac sens | Arbovirus inh | Mtb H37Rv | others
CC(=O)Nc1ccc(S(=O)(=O)Nc2ccc3c(c2)OCO3)cc1 | . | 2.7 | 2 | . | .
Cc1ccc(CSCC(=O)NCc2ccc3c(c2)OCO3)cc1 | . | -0.5 | 0 | . | -1%
CC1CCc2[nH]c3ccc(C(=O)N4CCCC(C(F)(F)F)C4)cc3c2C1 (centres undefined) | . | -2.1 | -1 | . | .
COc1cc(CN=Cc2c(O)n(Cc3ccccc3)c(=S)[nH]c2=O)cc(OC)c1 | . | 1.2 | 9 | . | 4%
CCOCCCNC(=S)NCCCNc1nc2c(C)cc(C)cc2cc1C#N | . | . | . | -26 | -3%
c1cc(SSc2ccncc2)ccn1 | . | 1.3 | 5 | . | .

The main list resumes; the 2 compounds before the break are reprinted first.
SMILES | YopH inh | RecA splice inh | Mtb bLac sens | Arbovirus inh | Mtb H37Rv | others
CCCn1c2ccc(F)cc2c2nnc(NN)nc21 | . | -2.3 | 2 | 6 | 2%
CC(=O)Nc1ccc(S(=O)(=O)Nc2ccc3c(c2)OCO3)cc1 | . | 2.7 | 2 | . | .
O=S(=O)(NN1CCOCC1)c1cc(Cl)cc(Cl)c1O | . | 15 | 15 | . | .
CC1CCc2c(sc3nc(CSc4n[nH]c(N)n4)[nH]c(=O)c23)C1 (centres undefined) | -23 | -2.5 | 88 | -11 | 10%
O=C(Nc1nnc(-c2ccccc2)o1)c1ccc(Cl)cc1 | -13 | 1.7 | 97 | -7 | <0.2µM*
Cc1oc(C)c(C(=O)Nc2ccc(CC(=O)O)cc2)c1C(=O)Nc1ccc(CC(=O)O)cc1 | -9 | 0.2 | 1 | 9 | -15%
N/C(=N\OC(=O)CCc1ccccc1)c1cccnc1 | . | 6.2 | -1 | 0 | 2%
CC(Sc1nnc(-c2cc3ccccc3o2)n1-c1ccccc1)C(=O)O (centres undefined) | 0 | -1.5 | -14 | 8 | -3%
Cc1ccc(C(=O)C(OC(=O)COc2ccccc2C)c2ccccc2)cc1 (centres undefined) | -47 | 13 | -9 | -1 | -2%
COc1ccc(C2CC(c3cccs3)=NN2C(=O)CSc2nncs2)cc1OC (centres undefined) | . | 2.0 | 0 | 15 | -4%
Cc1ccc2cc(CCNC(=O)C(=O)c3c(C)[nH]c4ccccc34)c(=O)[nH]c2c1 | . | -0.9 | -5 | -9 | 4%
COc1ccc(N2C(=O)CSC23C(=O)N2c4c(cccc43)C(C)=CC2(C)C)cc1 (centres undefined) | -13 | 33* | 1 | 2 | 4%
O=C(Oc1ccc(-c2nnco2)cc1)c1ccc(Br)o1 | . | 15 | 7 | . | .
Cc1n(C)c2cc(Cl)ccc2[n+]1Cc1ccccc1 | . | -1.8 | -6 | 4 | 10%
CC(C)OC(=O)NC(Nc1ccccc1C(=O)O)(C(F)(F)F)C(F)(F)F | . | 0.7 | 6 | . | -2%
CCN1CCCC1CNC(=O)c1cc2c(-c3ccc(Cl)cc3)nn(C)c2s1 (centres undefined) | -1 | 3.1 | 38 | -27 | 1% | Arbovirus inh repeat=-21
Fc1cccc(Cl)c1Cn1nnc(-c2ccc3c(c2)OCO3)n1 | -28 | 15 | -1 | 4 | 1%
CCN(CCCCCN(C)C)Cc1cc2ccccc2o1 | 3 | 0.6 | -6 | -8 | 2%
Cc1ccc(NC(=O)CCc2c(C)nn(-c3ccc(N4CCOCC4)nn3)c2C)cc1F | . | -1.6 | 7 | . | .
COc1cccc(C2CCCN2Cc2nc(-c3cnccn3)no2)c1 (centres undefined) | . | -0.6 | -4 | 3 | 0%
O=C(c1cccc(Br)c1)N1CCN(c2cnn(-c3ccccc3)c(=O)c2Cl)CC1 | . | -0.9 | 12 | -1 | 19%
COc1ccc(C2/C(=C(/O)c3ccccc3)C(=O)C(=O)N2CCN2CCOCC2)c(OC)c1 (centres undefined) | -31 | -0.1 | 10 | 5 | 0%
Cc1ccc(SCCC(=O)NC(C(C)C)C(C)C)cc1 | -4 | -2.0 | 2 | 4 | -6%
CC(O)CC(C(=O)NNc1ccccc1)C(=O)NNc1ccccc1 (centres undefined) | . | -2.2 | -11 | -24 | ?
COc1cc(Cl)c(C)cc1NC(=O)CSc1nc2ccccc2o1 | -28 | 3.6 | -11 | 2 | -4%
CC(NC(=O)c1cccnc1)C(=O)O (centres undefined) | . | -0.2 | 4 | -2 | -2%
COC(c1ccccc1)c1nnc(CCC(=O)N(C)CCOc2ccccc2)o1 (centres undefined) | . | 0.2 | -1 | 4 | 4%
O=C(NCC(=O)N1CCCCC1)c1ccc(Cl)cc1Cl | -13 | -0.4 | 3 | 8 | -6%
CCn1c(CN2CCN(C(=O)c3ccco3)CC2)nc2c1c(=O)n(C)c(=O)n2C | -9 | -0.9 | 7 | 1 | -15%
COc1ccc(Nc2nc(-c3cc4cccc(OC)c4oc3=O)cs2)cc1 | -17 | 0.9 | 90 | -5 | 1%
Cc1c(NC(=O)c2cnn3c2NC(c2ccc(Br)cc2)CC3C(F)(F)F)c(=O)n(-c2ccccc2)n1C (centres undefined) | -15 | 8.5 | 6 | 3 | -5%
COc1ccc(CCNC(=O)C(=O)NCCOc2ccccc2)cc1OC | -29 | -1.6 | 3 | -2 | 12%
Cc1ccc(S(=O)(=O)N(C)CC(=O)OCC(=O)N2CCCC2=O)cc1 | . | 0.0 | 2 | 1 | 3%
C=CCC(C#Cc1ccccc1)N(C)C (centres undefined) | -33 | -0.4 | 7 | 0 | 1%
O=[N+]([O-])c1ccc(Nc2ccc(N3CCOCC3)cc2)c([N+](=O)[O-])c1 | . | -0.5 | -3 | 4 | 4%
O=C(CSc1n[nH]c(-c2ccncc2)n1)c1ccccc1 | -43 | -1.6 | 6 | 5 | -9%
CC1(C)CC(=O)C(CC2CCCCC2=O)C(=O)C1 (centres undefined) | . | -4.6 | -6 | . | -8%
NNC(=O)c1ccc(Cn2cc(Cl)cn2)cc1 | -15 | 0.0 | 0 | -6 | 4%
c1ccc(Cc2nc3ccccc3n2Cc2ccccc2)cc1 | -29 | 4.3 | -18 | 9 | -5%
Cc1cc(C(=O)N/N=C/c2ccc([N+](=O)[O-])s2)n[nH]1 | . | -2.8 | 100 | . | ?
Cc1cc(NS(=O)(=O)c2ccc(NC(=O)CSc3nc4sc(C)c(C)c4c(=O)[nH]3)cc2)no1 | . | 0.2 | 6 | 3 | -2%
COc1cc(-c2nc(CN3CCN(CC(C)C)C(=O)[C@@H]3C)c(C)o2)ccc1F | . | 1.7 | -2 | 3 | -5%
COc1ccc(NC(=O)CN(C)S(=O)(=O)c2cccc3cccnc23)cc1 | -45 | . | -2 | -5 | -3%
FC(F)(F)c1ccc2nnc(-c3c(Cl)cccc3Cl)n2c1 | -13 | -0.6 | 6 | -2 | 2%
O=C(Nc1ccccc1)O/N=C1\CCCCC1c1ccc([N+](=O)[O-])cc1[N+](=O)[O-] (centres undefined) | -8 | 0.8 | 63 | 2 | -1%
Cc1ccc(NC(=O)c2ccc([N+](=O)[O-])o2)cc1S(=O)(=O)N1CCOCC1 | . | -5.2 | 99 | -37 | ?
CCOC(=O)N1CCN(C(=O)CN(C)S(=O)(=O)c2ccc3c(c2)c(=O)n(C)c(=O)n3C)CC1 | . | -3.2 | -2 | 10 | -6%
CCc1ccc2c(c1)/C(=C/C(=O)c1cccs1)C(=O)N2 | -2 | 16 | 100 | -25 | 3.1µM*
Cc1ccsc1C(=O)OCC(=O)c1cc2ccccc2o1 | -46 | 12 | 19 | -5 | 9% | Arbovirus inh repeat=-6
NC(=O)c1oc2ccccc2c1NC(=O)c1nc2ccccc2s1 | -20 | -5.5 | -15 | -4 | -3%
O=C(N/N=C/c1cccnc1)C1CCCN(S(=O)(=O)c2ccccc2)C1 (centres undefined) | -15 | -1.3 | -1 | -2 | -1%
Cc1ccc(-n2c(C)cc(/C=C3/C(=O)NC(=O)N(C)C3=O)c2C)cc1 | -21 | -3.3 | 3 | 4 | -2%
CCN(CC)CCCN1C=C2C(=O)C(C)(OC(=O)C3CCCC3)C(=O)C=C2C=C1c1ccsc1 (centres undefined) | . | -2.0 | -11 | . | -1%
Cc1ccc(OCCn2c(CCCO)nc3ccccc32)cc1 | -56 | 0.5 | 2 | 2 | -1%

An excerpt from above in order of count of non-hydrogen atoms, largest number first:
SMILES | YopH inh | RecA splice inh | Mtb bLac sens | Arbovirus inh | Mtb H37Rv | others
Cc1c(NC(=O)c2cnn3c2NC(c2ccc(Br)cc2)CC3C(F)(F)F)c(=O)n(-c2ccccc2)n1C (centres undefined) | -15 | 8.5 | 6 | 3 | -5%
CCN(CC)CCCN1C=C2C(=O)C(C)(OC(=O)C3CCCC3)C(=O)C=C2C=C1c1ccsc1 (centres undefined) | . | -2.0 | -11 | . | -1%
COc1ccc(N2C(=O)CSC23C(=O)N2c4c(cccc43)C(C)=CC2(C)C)cc1 (centres undefined) | -13 | 33* | 1 | 2 | 4%
CC(C)OC(=O)NC(Nc1ccccc1C(=O)O)(C(F)(F)F)C(F)(F)F | . | 0.7 | 6 | . | -2%
CC(O)CC(C(=O)NNc1ccccc1)C(=O)NNc1ccccc1 (centres undefined) | . | -2.2 | -11 | -24 | ?
O=C(Oc1ccc(-c2nnco2)cc1)c1ccc(Br)o1 | . | 15 | 7 | . | .
